From PubChem BioAssay
NS1 inh: qHTS Assay for Inhibitors of Influenza NS1 Protein Function; 270,000 compounds, 0.4% hits; S. cerevisiae slowed by influenza A NS1, growth recovery by OD600; AID 2326, 2010; Potency, µM (doses to about 46.1 µM), for the others: top-dose activity, positive = more growth; also: actives are rising curves; nearly all actives have a fitted effect of over 50% in size
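S. cerevisiae expressing influenza A NS1, grown in glucose, washed, then diluted 1:100 into pH 6.0 -URA galactose medium with 23 nl compound. Growth recovery read as OD600; NS1-free strain serves as control.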
RE007 growth inh: qHTS Assay for Inhibitors of the HIV-1 protein Vpr; S. pombe RE007 Vpr strain, BacTiter-Glo ATP luminescence, 24 h; control for the full effect not named in the record; AID 651644, 2012; 360,000 compounds, 0.21% hits; Potency, µM (doses to about 92.2 µM), inactives show at the top dose activity change, negative = less growth; active = well fitted falling curve with a large enough effect; inconclusive = small, poorly fitted or top-dose-only effect; inactive = no such curve, though single readings can be large or run the other way;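 also: % is scaled to controls: 0 for no effect and ±100 for the full control effect; nearly all actives have a fitted effect of over 50% in size; the assay follows cell death caused by Vpr and the record does not say whether a fall means rescue or toxicity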
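Fission yeast strain RE007, carrying one chromosomally integrated HIV-1 vpr copy, was seeded at OD 0.01 in PMG+AL medium with 23 nL pinned compound. After 24 h at 30 °C and 99% humidity, viability was read by BacTiter-Glo luminescence.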
Cruzain Triton: qHTS Assay for Promiscuous and Specific Inhibitors of Cruzain (with detergent) | Cruzipain (Trypanosoma cruzi), P25779 | purified cruzain, Z-FR-AMC fluorescence, 0.01% Triton | Potency, µM, for the others: max response, negative = inhibition, hits mostly inhibitors | 200,000 compounds, 0.43% hits | AID 1478, 2009; active = well fitted curve in the direction sought with a large enough effect; inconclusive = small, poorly fitted or top-dose-only effect, or another doubt; inactive = no such curve, though single readings can be large; an effect the other way counts as inactive or inconclusive;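 also: plate controls were neutral wells for no effect and buffer without enzyme for full effect; nearly all actives have a fitted effect of over 40% in size; top concentration of the series not given in the record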
Target sequence (P25779 123-467 limits assumed): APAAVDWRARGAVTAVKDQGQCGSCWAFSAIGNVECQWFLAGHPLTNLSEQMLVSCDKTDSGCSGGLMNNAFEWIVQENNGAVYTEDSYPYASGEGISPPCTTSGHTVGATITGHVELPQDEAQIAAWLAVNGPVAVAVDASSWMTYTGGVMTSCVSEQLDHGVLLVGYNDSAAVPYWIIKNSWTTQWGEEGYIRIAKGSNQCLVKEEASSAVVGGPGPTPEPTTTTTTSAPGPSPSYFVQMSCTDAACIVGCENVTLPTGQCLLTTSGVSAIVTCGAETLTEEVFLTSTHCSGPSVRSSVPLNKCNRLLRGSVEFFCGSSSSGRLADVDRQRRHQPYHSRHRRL
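Enzyme 1.5 nM, Z-FR-AMC 2 uM, NaOAc 100 mM pH 5.5, DTT 5 mM, Triton X-100 0.01%; 15 min RT compound preincubation; kinetic ex360/em450, 60 s delta.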
MARV entry inh: qHTS for inhibitors of binding or entry into cells for Marburg Virus; Marburg virus pseudotyped entry inhibition, cell reporter; control for the full effect not named in the record; about a third of the inactives were read at about 46 µM; Potency, µM (highest dose often 37.8 µM), inactives show at the highest dose activity change, negative = inhibition, usual class: inhibitors; 300,000 compounds, 1.8% hits; AID 540276, 2011; active = well fitted inhibition curve with a large enough effect; inconclusive = small, poorly fitted or top-dose-only effect, or effect the other way; inactive = flat fitted curve, though single readings scatter; tested in HEK293 cells; about a fifth of its hits are not listed in these tables; also: % is scaled to controls: 0 for no effect and ±100 for the full control effect; luciferase read-out
Cruzain inh noDet: qHTS Assay for Promiscuous and Specific Inhibitors of Cruzain (without detergent); Potency, µM, for the others: max response, negative = inhibition, hits mostly inhibitors; 200,000 compounds, 2.3% hits; AID 1476, 2009; Cruzipain (Trypanosoma cruzi), P25779; purified cruzain, Z-FR-AMC fluorescence, no detergent; active = well fitted curve in the direction sought with a large enough effect; inconclusive = small, poorly fitted or top-dose-only effect, or another doubt; inactive = no such curve, though single readings can be large; an effect the other way counts as inactive or inconclusive;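 also: plate controls were enzyme without inhibitor for no effect and buffer without enzyme for full effect; nearly all actives have a fitted effect of over 40% in size; top concentration of the series not given in the record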
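Purified cruzain at 1.5 nM, pre-incubated 15 min with compound at room temperature in 100 mM sodium acetate pH 5.5, 5 mM DTT, 0.00005% Triton X-100. Reaction started with 2 uM Z-FR-AMC; AMC fluorescence increase over 60 s gives rate.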
Lassa entry inh: qHTS for Inhibitors of binding or entry into cells for Lassa Virus; 300,000 compounds, 1.2% hits; Lassa virus pseudotype entry inhibition, cell reporter; control for the full effect not named in the record; Potency, µM (series often up to 37.9 µM), for inactives: at the highest dose activity change, negative = inhibition, hits mostly inhibitors; active means well fitted inhibition curve with a large enough effect; inconclusive means small, poorly fitted or top-dose-only effect, or effect the other way; inactive means flat fitted curve, though single readings scatter; tested in HEK293 cells; also: % is scaled to controls: 0 for no effect and ±100 for the full control effect; nearly all actives have a fitted effect of over 50% in size; luciferase read-out
StopGo reporter: High Throughput Screening for Foot and Mouth Disease Virus Antivirals. human cells with a luciferase reporter of 2A StopGo recoding; control for the full effect not named in the record. Potency, µM (titrated, usually from 57.9 µM), inactives show top-dose signal change, negative = less light. 410,000 compounds, 1.2% hits; active = well fitted falling curve with a large enough effect; inconclusive = small, poorly fitted or top-dose-only effect; inactive = no such curve, though single readings can be large or run the other way; tested in HEK293T cells; also: % is scaled to controls: 0 for no effect and ±100 for the full control effect; nearly all actives have a fitted effect of over 45% in size; luciferase light after 4 h
SARS PLpro yeast: qHTS of Yeast-based Assay for SARS-CoV PLP. S. cerevisiae expressing SARS-CoV PLpro, growth rescue; control for the full effect not named in the record. AID 485353, 2010. 330,000 compounds, 0.19% hits. Potency, µM (doses to about 32.9 µM), inactives show at the top dose activity, positive = growth rescue; also: 0% is about no effect; nearly all actives have a fitted effect of over 55% in size; growth read by luminescence after 48 h
Numbers without * were called inactive; ? = inconclusive; / = not tested or not shown; & = joins results of further samples; [ ] = another dose, or the depositor's remark. Unless noted, calls follow the shape of the dose curve; as a rule, active means well fitted rising curve with a large enough effect; inconclusive means small, poorly fitted or top-dose-only effect; inactive means no such curve, though single readings can be large or run the other way. Potency is read from the fitted curve at half-maximal effect.

SMILES	NS1 inh	RE007 growth inh	Cruzain Triton	MARV entry inh	Cruzain inh noDet	Lassa entry inh	StopGo reporter	SARS PLpro yeast
CCN(C(=O)C1CCCN1S(=O)(=O)c1cccc2nsnc12)c1ccccc1 (stereo not drawn)	0%	-1%	/	/	/	/	2%	-2%
Brc1ccccc1-c1nnc(SCc2nc3ccccc3s2)o1	-3%	-12%	-7.4%	?	-3%	?	-5%	12%
O=C(Nc1cccc(O)c1)c1cc(-c2cccs2)on1	-40%	-21%	/	?	/	-1%[46.1 µM]	-16%	-32%
COC(=O)Cn1c(=NC(=O)CSCC(=O)NC2CCCCC2)sc2cc(OC)ccc21	-1%	-11%	1.0%	0%	6%	?	-21%	6%
O=C(c1ccccc1)N1CCN(C2CC(=O)N(CCc3ccccc3)C2=O)CC1 (stereo not drawn)	-4%	-9%	4.7%	1%	18%	3%	/	6%
CCc1ccc(NC(=O)CCNC(=O)Cn2ccc3ccccc3c2=O)cc1	2%	-19%	/	-3%[46.1 µM]	/	-2%[46.1 µM]	-3%	1%
COc1ccccc1NS(=O)(=O)c1ccc(N/N=C/c2ccccc2OCC(=O)O)c([N+](=O)[O-])c1	/	-9%	/	9%	/	-2%	-5%	-1%
CC(C)=CCSc1nnc([C@@H](N)Cc2c[nH]c3ccccc23)o1	8%	-4%	-9.3%	-4%	1%	2%	0%	-7%
COc1ccc(NC(=O)C2CC2)cc1NS(=O)(=O)c1ccc(F)cc1	9%	-10%	1.9%	4%	0%	?	-8%	-3%
N/C(CN1CCCC1=O)=N\OC(=O)c1ccc(Cl)c(Cl)c1	-12%	0%	-1.9%	18%	-6%	18%	7%	9%
Cc1ccc(-n2nnnc2C(=Cc2ccc(N(C)C)cc2)c2nnnn2-c2ccc(C)cc2)cc1	23%	3%	-1.9%	?	-14%	?	/	-5%
CC(C)CCNC(=O)CN(Cc1cccs1)C(=O)CCC(=O)Nc1nccs1	0%	-9%	-11%	-9%	4%	?	/	0%
O=C(O)c1cc(-n2nnnc2SCc2ccc([N+](=O)[O-])cc2)ccc1Cl	2%	13%	/	0%	/	-6%	8%	1%
O=C(NCCN1CCOCC1)c1cc([N+](=O)[O-])cc([N+](=O)[O-])c1	-11%	-1%	/	?	/	-20%	-2%	6%
CC(C)c1ccc(NC2CCCN(C(=O)CN3CCOC3=O)C2)cc1 (stereo not drawn)	3%	-22%	/	12%	/	-7%	-15%	27%
COC(=O)C1=C(C)N(c2ccc(OC)c(OC)c2)C(=O)/C1=C\c1cccs1	/	-10%	/	-1%[46.1 µM]	/	4%	-18%	1%
CCOC(=O)c1c(N2C(=O)Nc3ccccc3N2O)sc2c1CCCC2	21%	11%	-5.6%	1%	0%	-22%	-1%	11%
O=C(Nc1cccc(C(=O)N2CCCc3ccccc32)c1)c1ccccc1	-31%	19%	/	?	/	?	?	-6%
CC(C)C(NS(=O)(=O)c1cccc(C(F)(F)F)c1)C(=O)N1CCc2ccccc2C1 (stereo not drawn)	?	7%	/	?	/	?	-2%	-1%
CC(C)c1[nH]nc2c1C(c1cccc(OC(=O)N3CCOCC3)c1)C(C#N)=C(N)O2 (stereo not drawn)	-13%	-13%	-0.8%	-7%	1%	-8%	-14%	-4%
CCOC(=O)c1oc2ccccc2c1NC(=O)COC	1%	15%	2.1%	7%	9%	29%[14.3 µM]	13%	-1%
COc1ccc(/C=C2\SC(=S)NC2=O)cc1OS(=O)(=O)c1ccc(NC(C)=O)cc1	/	23%	/	-8%[46.1 µM]	/	1%	-24%	-1%
O=[N+]([O-])c1cc(S(=O)(=O)C(F)(F)F)ccc1NCC1CCCO1 (stereo not drawn)	-25%	21%	/	10%[46.1 µM]	/	?	-7%	1%
Cc1ccc(OCCN2C(=O)C(=O)c3cccc(C)c32)cc1	-4%	9%	/	-28%[46.1 µM]	/	-14%	-7%	1%
COC(=O)c1c(S(=O)(=O)N2CCOCC2)c(C)n(C)c1C	5%	7%	/	/	/	/	0%	2%
Cc1cccc(N2C(=O)CC(c3ccc(F)cc3)C3=C2COC3=O)c1 (stereo not drawn)	/	11%	0.7%	0%&0%[46.1 µM]	-5%	?	-3%&16%	-1%
CCCN1C(=O)c2ccccc2NC1c1cc(OC)c(OC)c(OC)c1 (stereo not drawn)	1%	-2%	-1.6%	-13%	6%	-21%	-6%	6%
Cc1ccc(CCNC(=O)C2CCC(=O)N2CCc2ccccc2)cc1 (stereo not drawn)	-7%	2%	/	?	/	-5%[46.1 µM]	-12%	-2%
Cn1c(COc2ccc(Cl)cc2Cl)nnc1SCC(=O)NCC1CCCO1 (stereo not drawn)	-2%	-5%	/	-3%[46.1 µM]	/	-3%	10%	-1%
CN(CC(=O)Nc1c(Cl)cccc1Cl)C(=O)CNC(=O)c1ccc2c(c1)OCO2	/	-14%	/	-22%	/	-12%	-15%	3%
O=C1CNc2ccc(C(=O)N3CCN(c4ccccn4)CC3)cc2N1	-2%	11%	/	/	/	/	-20%	0%
CN(Cc1cccs1)C(=O)c1cccc(S(=O)(=O)N2CCCCCC2)c1	/	1%	/	-4%	/	-6%	22%	1%
C=CCNC(=S)NCc1ccccc1OC	1%	3%	/	4%[46.1 µM]	/	5%	1%	1%
CCN(CC)S(=O)(=O)c1cc(NC(=O)CNc2cccc(S(=O)(=O)N3CCOCC3)c2)ccc1C	/	93%	/	?	/	?	-27%	3%
CCC(=O)Nc1cccc(C2=NOC3(C2)C[C@@H](C(N)=O)N(C(=O)c2cc([N+](=O)[O-])cc([N+](=O)[O-])c2)C3)c1 (stereo partly drawn)	0%	-7%	/	/	/	/	-14%	3%
CCn1c(=O)c2cc(C(=O)Nc3ccccc3OC)sc2c2ccccc21	1%	-5%	/	/	/	/	-11%	-5%
O=C(O)C1Cc2ccccc2CN1C(=O)c1ccco1 (stereo not drawn)	8%	-7%	/	/	/	/	-9%	7%
O=C(CCNC(=O)c1ccc(Cl)cc1)NCC(c1ccco1)N1CCCC1 (stereo not drawn)	/	-2%	/	13%	/	-5%[46.1 µM]	-11%	1%
Cc1c(C(=O)c2ccc(Cl)cc2Cl)cnc2cc3c(cc12)OCO3	19%	10%	-5.5%	?	-12%	?	?	-20%
O=C(OCc1cccc(Cl)c1)c1cc(S(=O)(=O)N2CCCCC2)ccc1N1CCOCC1	15%	-12%	/	11µM*	/	?	-27%	-3%
Cc1ccccc1C(=O)N1CCN(c2ncccn2)CC1	13%	5%	/	-10%	/	6%	-9%	-3%
N/C(=N\OC(=O)c1cc([N+](=O)[O-])ccc1Cl)c1cccnc1	-3%	1%	/	?	/	?	-24%	-1%
O=C(NC(=S)N1CCN(Cc2ccc3c(c2)OCO3)CC1)c1cccc(Br)c1	-40%	-21%	-1.1%	8%	-2%	0%	-15%	-23%
CCOC(=O)c1ccccc1NS(=O)(=O)c1ccc(N2CCCCS2(=O)=O)cc1	/	/	-6.3%	/	?	-17%[46.1 µM]	-15%	/
CC(/C=C/c1ccco1)=N\NC(=O)C(O)c1ccccc1 (stereo not drawn)	16%	1%	-4.4%	-2%	-3%	16%	38%[activator]	3%
CC(=O)c1cccc(OCC(O)CN2CC=C(c3ccccc3)CC2)c1 (stereo not drawn)	-5%	-16%	-2.1%	-24%	1%	-10%	-6%	5%
CC(C)CCNC(=O)c1cnn2c(C(F)(F)F)cc(-c3ccco3)nc12	2%	-1%	-4.7%	?	-6%	-14%	?	-9%
COc1ccc2oc(C(=O)NCC(Cc3ccccc3)N(C)C)c(C)c2c1 (stereo not drawn)	-4%	-3%	/	?	/	-18%[46.1 µM]	3%	1%

Of the compounds above, these have a Cl atom:
SMILES	NS1 inh	RE007 growth inh	Cruzain Triton	MARV entry inh	Cruzain inh noDet	Lassa entry inh	StopGo reporter	SARS PLpro yeast
N/C(CN1CCCC1=O)=N\OC(=O)c1ccc(Cl)c(Cl)c1	-12%	0%	-1.9%	18%	-6%	18%	7%	9%
O=C(O)c1cc(-n2nnnc2SCc2ccc([N+](=O)[O-])cc2)ccc1Cl	2%	13%	/	0%	/	-6%	8%	1%
Cn1c(COc2ccc(Cl)cc2Cl)nnc1SCC(=O)NCC1CCCO1 (stereo not drawn)	-2%	-5%	/	-3%[46.1 µM]	/	-3%	10%	-1%
CN(CC(=O)Nc1c(Cl)cccc1Cl)C(=O)CNC(=O)c1ccc2c(c1)OCO2	/	-14%	/	-22%	/	-12%	-15%	3%
O=C(CCNC(=O)c1ccc(Cl)cc1)NCC(c1ccco1)N1CCCC1 (stereo not drawn)	/	-2%	/	13%	/	-5%[46.1 µM]	-11%	1%
Cc1c(C(=O)c2ccc(Cl)cc2Cl)cnc2cc3c(cc12)OCO3	19%	10%	-5.5%	?	-12%	?	?	-20%
O=C(OCc1cccc(Cl)c1)c1cc(S(=O)(=O)N2CCCCC2)ccc1N1CCOCC1	15%	-12%	/	11µM*	/	?	-27%	-3%
N/C(=N\OC(=O)c1cc([N+](=O)[O-])ccc1Cl)c1cccnc1	-3%	1%	/	?	/	?	-24%	-1%
